# Kir21 inh – blocks the mouse Kir2.1 inward-rectifier potassium channel | P35561 | HEK293-Kir2.1, FluxOR thallium flux fluorescence; stronger effect = lower value | B-score at 10 µM | 0.85% of 310,000 active | AID 1672;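 active = fluorescence ratio B-score at or below minus 3 SD of library scores, with starting-brightness B-score within 2 SD, cut at about -4.2 in these data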;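 also: channel flux triggered by added potassium and thallium sulfate stimulus; B-score of peak minus minimum fluorescence over baseline after thallium stimulus; more negative B-score means stronger Kir2.1 block with less thallium influx; some compounds called inactive have numbers as strong as hits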
# Target sequence (P35561 whole entry, looked up): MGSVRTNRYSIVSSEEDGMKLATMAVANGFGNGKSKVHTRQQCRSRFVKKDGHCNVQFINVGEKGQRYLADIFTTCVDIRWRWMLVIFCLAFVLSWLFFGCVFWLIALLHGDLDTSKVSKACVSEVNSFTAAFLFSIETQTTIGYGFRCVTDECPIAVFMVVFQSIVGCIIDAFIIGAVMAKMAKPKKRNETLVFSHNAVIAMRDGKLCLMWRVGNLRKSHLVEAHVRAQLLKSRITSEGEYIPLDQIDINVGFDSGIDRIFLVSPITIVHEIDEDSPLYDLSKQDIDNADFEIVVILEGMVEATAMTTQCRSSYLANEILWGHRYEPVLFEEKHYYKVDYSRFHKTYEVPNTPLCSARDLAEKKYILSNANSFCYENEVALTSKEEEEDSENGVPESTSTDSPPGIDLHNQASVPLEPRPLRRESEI
# The depositor's hits bear a star. An excerpt; most or all hits stand in other tables.
# Start of the listing, in advance:
SMILES | Kir21 inh
CN[C@H]1CCc2cc(OC)c(OC)c(OC)c2-c2ccc(OC)c(=O)cc21 | 0.05
CCOc1cc(C=O)ccc1OCC(N)=O | 1.58

# The whole of this part, previewed entries included:
SMILES | Kir21 inh
CN[C@H]1CCc2cc(OC)c(OC)c(OC)c2-c2ccc(OC)c(=O)cc21 | 0.05
CCOc1cc(C=O)ccc1OCC(N)=O | 1.58
COc1ccc(NC(=O)C2CC(c3ccccc3Cl)=NO2)cc1 (stereo not given) | 0.1
Cc1cc(C)nc(SCC(=O)N/N=C/c2cccn2-c2ccc(O)cc2)n1 | -0.34
O=C(O)CCSc1nc2ccccc2n1Cc1ccccc1 | 0.72
CCN1CCc2c(sc3c2c(NCc2ccco2)nc2nnnn23)C1 | -1.99
Cc1cc(NC(=O)CSc2nnc(CNc3ccc(F)cc3)n2C2CCCCC2)no1 | -0.53
CC(C)(C)C(=O)NC(NC(=S)Nc1ccc(S(N)(=O)=O)cc1)C(Cl)(Cl)Cl (stereo not given) | -1.5
O=C(NCc1ccc(F)c(F)c1)C1CCC(=O)N(CC2CCCCC2)C1 (stereo not given) | -0.93
Cc1nn(-c2ccccc2)c(Cl)c1C(=O)OCC(=O)NCCc1ccccc1 | -2.05
CCC1(c2ccc(F)cc2)NC(=O)N(CC(=O)Nc2ccc(C)c(S(=O)(=O)N3CCOCC3)c2)C1=O (stereo not given) | 0.39
O=C(NC1=NCCS1)c1sc2ccccc2c1Cl | 3.12
Cc1ccnc(SCC(=O)N2CCN(c3ccccc3)CC2)n1 | 0.02
Cc1ccc(C(C(=O)NC(C)(C)C)N(Cc2ccc3c(c2)OCO3)C(=O)c2ccc(CN3CCOCC3)o2)o1 (stereo not given) | 1.55
Cc1nc2c(C)cccn2c1/C(O)=C1\C(=O)C(=O)N(CCN(C)C)C1c1ccncc1 (stereo not given) | 0.25
CC(=O)C(=Cc1ccc(C(=O)O)cc1)C(C)=O | 0.84
O=C(CC12CC3CC(CC(C3)C1)C2)N1CCCC1 | 1.4
CCOc1cc(CNc2ccc(N3CCN(C(C)=O)CC3)cc2)cc(Br)c1OC | -2.88
CCCN1CCC2(CC1)C(C#N)=C(N)Oc1c2sc2nc(C)cc(C)c12 | -1.1
Clc1cccc(OCCCCN2CCCCC2)c1 | 0.92
COCCN1C(=O)c2ccc(C(=O)NCc3ccco3)cc2C1=O | 0.69
COc1ccc(C(C2C(=O)CC(C)(C)CC2=O)C2C(=O)CC(C)(C)CC2=O)cc1 | 1.07
O=C(OCc1ccc(-c2ccccc2)cc1)c1cccc(O)c1 | 1.36
CCN(CC)CCNC(=O)c1ccc(Cl)c(S(=O)(=O)N2CCCCCC2)c1 | 0.02
O=C(COc1ccc2ccccc2c1)Nc1cccc2c1C(=O)NC2=O | 0.52
CCOC(=O)C(Oc1ccc2c(-c3ccccc3)cc(=O)oc2c1)c1ccccc1 (stereo not given) | -2.13
Cc1ccc(S(=O)(=O)NCCC(=O)NC(C)c2ccccc2)cc1 (stereo not given) | -0.23
COc1ccc(N2CC(C(=O)Nc3nnc(SCC(=O)NCc4ccco4)s3)CC2=O)cc1 (stereo not given) | -0.63
Cc1cc(NC(=O)CSc2nnc3c(C)cc4c(C)ccc(C)c4n23)no1 | -0.18
COc1ccc(C2=NN(C(=O)c3ccco3)C(c3ccco3)C2)cc1OC (stereo not given) | -0.68

# Three entries from above, ordered by the number in Kir21 inh, smallest number first:
Compound,Kir21 inh
CC(C)(C)C(=O)NC(NC(=S)Nc1ccc(S(N)(=O)=O)cc1)C(Cl)(Cl)Cl (stereo not given),-1.5
Cc1ccnc(SCC(=O)N2CCN(c3ccccc3)CC2)n1,0.02
Clc1cccc(OCCCCN2CCCCC2)c1,0.92

# Further results follow.
SMILES | Kir21 inh
Cc1ccc(C2CC(c3cccc(C)c3)n3ncnc3N2)cc1 (stereo not given) | -0.22
Cc1nn(C)c(C)c1CCC(=O)NC1CC(C)(C)Cc2c1cnn2-c1ccccc1 (stereo not given) | 0.39
Cc1ccc(C(=O)NCCCn2ccnc2)o1 | -1.72
COc1ccc(C)cc1NC(=O)n1ncc2c(C)cccc21 | -0.02
O=C(NCCc1ccccc1)C(=O)Nc1ccc2c(c1)OCCO2 | -0.05
Cc1noc(C)c1COC(=O)c1ccc2c(c1)S(=O)(=O)c1ccccc1C2=O | -2.23
CCN(Cc1ccccc1)C(=O)COC(=O)CNC(=O)c1ccc(C)s1 | 0.03
Cc1nn(Cc2ccc([N+](=O)[O-])cc2)c(=O)n1-c1ccc(Cl)cc1 | -0.84
O=C(NNC(=O)c1ccncc1)Nc1cccc([N+](=O)[O-])c1 | 0.04
CCC(C)NC(=O)c1cc(-c2cccs2)nc2ccccc12 (stereo not given) | -0.3
Cc1cc(O)cc(O)c1C(=O)Cc1cscn1 | -3.01
CCOc1ccc(-c2nnc(NC(=O)CCCOc3cccc(C)c3)o2)cc1 | 0.89
Cc1cc2c(s1)c1cnn(CC(=O)NCCc3ccccc3)c(=O)c1n2C | -0.05
CN(CC1CCCO1)S(=O)(=O)c1ccc(C(=O)Nc2ccc3c(c2)OCO3)cc1 (stereo not given) | 0.96
CC(=O)C(Cc1ccccc1)(Cc1ccccc1)C(C)=O | -1.15
COc1ccc(N2CC(C(=O)NC3CC(C)(C)NC(C)(C)C3)CC2=O)cc1 (stereo not given) | 0
Nc1nc(-c2ccccc2)c(C(=O)Nc2ccccc2)s1 | -0.59
CN1CC[C@@]2([C@@]34CCN(C)C3Nc3ccccc34)c3ccccc3NC12 (stereo not given in full) | -0.81
COc1ccccc1OCC(=O)Nc1ccc2c(c1)OCO2 | 1.46
CN(C)c1ccc(NC(=O)CN2C3CCCC2CC(NC(=O)c2ccccc2)C3)cc1 (stereo not given) | -1.57
Clc1nc2ccccc2cc1-c1nnn(-c2ccccc2)n1 | 0.04
CC(Oc1ccccc1)C(=O)Nc1nnc(C2CCCCC2)s1 (stereo not given) | 1.14
CCC(C)(C)n1nnnc1C(c1ccc2ncccc2c1)N1CCN2CCCC2C1 (stereo not given) | -1.26
Cc1cccc(-n2c(SCc3cc(=O)n4ccsc4n3)nc3ccccc3c2=O)c1 | -1.89
O=C(NNC(=O)c1ccc(F)cc1)C(=O)N1CCCCC1 | 0.67
O=C(CN1CCC(N2CCCCC2)CC1)N1CCCc2ccccc21 | -0.12
CC(C)n1cc(CN2CCC(C(=O)Nc3cccc(-c4cscn4)c3)CC2)cn1 | -2.09
CCCC(=O)Nc1ccc(C)c(O)c1 | 0.26
COc1ccccc1Nc1ccc([N+](=O)[O-])cn1 | -0.41
Oc1cccc2cnccc12 | 0.06
Cc1cccc(N(Cc2ccccc2)C(=O)c2ccc(S(C)(=O)=O)cc2)c1 | -0.31
Cc1ccc(C)n1-c1nccc(-c2cccs2)n1 | 0.1
COC(=O)c1ccc(CN2C(=O)C3CCCCC3C2=O)o1 (stereo not given) | 0.67
Cc1ccc(C23CC4CC(CC(NC(=O)NC(C)(C)CO)(C4)C2)C3)cc1 | -2.46
COC(=O)c1ccc(NC(=O)CCn2c(=O)oc3ccccc32)cc1 | -4.56
NS(=O)(=O)c1cccc(C(=O)NC2CCSc3ccccc32)c1 (stereo not given) | 1.02
C/C(CC(=O)NCc1ccc(F)cc1)=N\NC(N)=S | 0.01
CN(C)CC1(c2ccccc2)CCCC1 | 0.91
COc1cccc2c1Oc1ncccc1N(C(=O)CCC(=O)NCc1ccccc1Cl)C2 | -0.24
CCc1cccc(NC(=O)CCCn2c(=O)[nH]c3ccsc3c2=O)c1 | 0.17
CCOc1ccc(Nc2nc3ccccc3n3nnnc23)cc1 | -0.39
Nc1cc(=O)[nH]c(SCC(=O)c2ccc(O)cc2O)n1 | 0
CCn1c(SCC(=O)Nc2c(C)n(C)n(-c3ccccc3)c2=O)nnc1-c1cccc(C)c1 | -0.99
CC1Cn2c(nnc2-c2ccc(F)cc2)S1 (stereo not given) | 0.07
CC12CCC(=O)N1C(C(=O)NNC(=O)c1ccc(F)cc1)CS2 (stereo not given) | -1.41
COc1cccc(NC(=O)N2CCN(c3nnnn3-c3ccccc3)CC2)c1 | 0.12
Cc1ccc(C(=O)N/C(=C\c2ccco2)C(=O)N2CCCCC2)cc1 | 0.34
NC(N)=Nc1nc2cc([N+](=O)[O-])ccc2o1 | 0.12
CCC(=O)NC(=S)Nc1ccc(NC(=O)CC)cc1 | 0.04
NS(=O)(=O)c1ccc(CCNC(=O)CSc2ccc(Cl)cc2Cl)cc1 | -2.42
Cc1ccc2c(c1)C1(OCCCO1)C(=O)N2 | -0.94
CCCCOc1ccc(Cc2c(COCC)[nH]c(=S)[nH]c2=O)cc1 | -0.43
CN(CC(=O)Nc1ccc(N2CCOCC2)cc1)C(=O)CCNC(=O)c1ccccc1Cl | 0
Cc1ccc(NC(=O)C(=O)NCc2ccncc2)cc1 | -0.39
CCn1nnc(NC(=O)c2ccc([N+](=O)[O-])o2)n1 | -2.96
Cc1cc(C)cc(NC(=O)CSc2nnc(CNC(=O)c3ccco3)o2)c1 | 0.74
CCCn1c(SCC(=O)Nc2cccc(NC(C)=O)c2)nnc1C(C)C | 3.09
CN(CC(=O)N1CCN(c2ncccn2)CC1)S(=O)(=O)c1ccc(Cl)cc1 | -0.01
COc1ccccc1NC(=O)CSc1n[nH]c(-c2cccnc2)n1 | 0.49
Cn1cnc(S(=O)(=O)NCc2cccs2)c1 | 1

# Three structures from above, sorted by count of non-hydrogen atoms, falling.
SMILES | Kir21 inh
Cc1cccc(N(Cc2ccccc2)C(=O)c2ccc(S(C)(=O)=O)cc2)c1 | -0.31
NS(=O)(=O)c1cccc(C(=O)NC2CCSc3ccccc32)c1 (stereo not given) | 1.02
Cc1ccc2c(c1)C1(OCCCO1)C(=O)N2 | -0.94

# Remaining list, next part.
SMILES | Kir21 inh
Cc1cccc(CC(=O)NCC(=O)NCc2cc(=O)n(C)c(=O)n2C)c1 | 0.64
CC(C)Cn1c(N)c(C(=O)COC(=O)CN2C(=O)C3CC=CCC3C2=O)c(=O)n(C)c1=O (stereo not given) | 1.98
COc1ccc(-c2noc(-c3ccccc3C(=O)Nc3cccc(OC)c3)n2)cc1 | 0.28
COc1ccc(CCNC(=O)CSc2ccsc2[N+](=O)[O-])c(OC)c1 | -1.4
NC(C(=O)O)C(c1ccccc1)C(F)F (stereo not given) | 3.43
O=C(NCC(c1cccs1)N1CCOCC1)c1cc2ccccc2o1 (stereo not given) | -0.31
C=CCNC(=O)c1ccc2c3n(nc2c1)-c1ccc(C)cc1CO3 | -1.28
Cc1cccc(-n2cnc(C(=O)N/N=C\c3ccc(Br)cc3)c2)n1 | -2.31
CS(=O)(=O)c1ccc2nc(NC(=O)c3cccc(NS(=O)(=O)c4ccc(F)c(F)c4)c3)sc2c1 | 0.93
CCc1nnc(NC(=O)C(CC)CC)s1 | 1.53
O=C(NCCCCc1ccccc1)C1CC(c2cccc(F)c2)=NO1 (stereo not given) | 0.76
COc1ccc(C(CC(=O)O)NC(=O)c2ccco2)cc1OC (stereo not given) | -0.41
CCCc1cc(=O)oc2cc(OCC(=O)N3CCc4ccccc43)ccc12 | 1.1
COc1cc(NC(=O)C2CCN(S(=O)(=O)c3cnc[nH]3)CC2)cc(OC)c1OC | -0.49
COc1ccc(NC(=S)Nc2ccc(OC(F)F)cc2)cn1 | -0.27
CCC1SC(=Nc2cccc(C)c2)NC1=O (stereo not given) | 0.29
O=C(O)c1cc(C(=O)C2CCCCC2)c[nH]1 | -0.38
CC(C)[C@H](NC(=O)c1ccccc1)C(=O)OCC(=O)/C=C1/N(C)c2ccccc2C1(C)C | -0.37
CC(OC(=O)C1CC(=O)N(Cc2ccccc2)C1)C(=O)Nc1ccc(F)cc1Cl (stereo not given) | -0.03
CCOc1ccc(N(CC(=O)N2CCN(c3ccccc3F)CC2)S(=O)(=O)c2c(C)noc2C)cc1 | 2.18
O=C(Oc1ccc(-c2ccccc2)cc1)N1CCCCC1 | 0.65
COc1ccc(C(c2nnnn2Cc2cccs2)N2CCN(c3ccccc3)CC2)cc1OC (stereo not given) | 0.07
COc1ccc(NC(=O)COC(=O)/C=C/C(=O)OCC(=O)Nc2ccc(OC)c(Cl)c2)cc1Cl | -1.17
CCOC(=O)CSc1ccc2nnc(CCNS(=O)(=O)c3ccccc3)n2n1 | 1.01
CCOc1ccccc1N1CC(C(=O)N2CCc3ccccc3C2)CC1=O (stereo not given) | 0.26
O=C(Nc1ccccc1)N1CC=C(c2ccc(F)cc2)CC1 | 0.96
COc1ccccc1N1CCN(C(=O)c2ccc(NC(C)=O)cc2)CC1 | -0.26
C=CCn1c(SCC(=O)NC2CCS(=O)(=O)C2)nnc1-c1ccc(Cl)cc1 (stereo not given) | 0.2
Cc1ccc(S(=O)(=O)N2CCOCC2)cc1NC(=O)COC(=O)CSc1ccc(Br)cc1C | -0.28
O=C(NC1=NCCS1)C1CC2CCC1C2 (stereo not given) | 0.22
C=CCn1c(SCC(=O)OCC)nc2cc(C(=O)NCc3ccco3)ccc2c1=O | 1.61
O=C(CCCCCN1C(=O)c2cccc3cccc(c23)C1=O)NC1CCS(=O)(=O)C1 (stereo not given) | -0.82
COc1cccc2cc(C(=O)N(C)C3CCN(C)CC3)c(=O)oc12 | 1.76
O=C(CNS(=O)(=O)c1ccccc1)N/N=C\c1ccc(Cl)cc1 | 0.85
CN(C)/C=C1\C=C(c2ccccc2)OC1=O | -1.01
COc1ccccc1-c1nc(-c2ccc(C(=O)O)cc2)no1 | 1.77
O=C(CSc1ccc2nnc(-c3ccncc3)n2n1)Nc1ccc2c(c1)OCO2 | 0.73
CC1(C)CN(c2ccc(C(=O)c3ccccc3)cc2)C1=O | -1.45
CCN(CC)S(=O)(=O)c1ccc(NC(=O)CSc2nnc(-c3cccc(OC)c3)n2C)cc1 | 0

# Given as labelled records: part of the list above
COc1ccccc1-c1nc(-c2ccc(C(=O)O)cc2)no1
  Kir21 inh: 1.77
O=C(CSc1ccc2nnc(-c3ccncc3)n2n1)Nc1ccc2c(c1)OCO2
  Kir21 inh: 0.73
